YB-1 expr inh: YB-1 expression inhibition; U2OS, qRT-PCR YB-1 vs CDIP delta delta Cp, 16 h; hits give high values; zero = DMSO, each unit about twofold; delta delta Cp (YB-1 minus CDIP) (concentration not given with the values); 30,000 compounds, 0.37% hits; AID 434959;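 active means delta delta Cp rounded down to an integer at or above 3, about 3 SD of DMSO wells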;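 further: higher means less YB-1 transcript or more CDIP transcript relative to DMSO; stock transfer was 100 nL into about 100 µL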
PD-1 reversal: reversal of PD-1 mediated T-cell inhibition | primary human CD4 T cells, PD-L1 beads, CellTiter-Glo 96 h | activation, % (concentration not given with the values) | 29,000 tested, under 10 active | AID 2316;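 active means replicate mean of 50% or more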;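 further: 0% = median vehicle wells and 100% = positive control; 100 nL library stock added to about 50 µL; numbers are from one replicate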
MITF inh: inhibitors of MITF | TRPM1 promoter luciferase, luminescence, 24 h | inhibition, % (test concentration not listed) | 37,000 compounds, 0.28% hits;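 active means most replicates at 85% or more, or half of them and the mean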;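 further: human melanocyte line stably carrying TRPM1 promoter luciferase reporter; 0% = vehicle wells and 100% = a positive control; the first replicate is given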
Hedgehog inh: Sonic Hedgehog pathway inhibition | 22,000 compounds, 2.1% hits | AID 2313 | inhibition, % (test concentration not listed) | Shh-LIGHT2 Gli-luciferase reporter, 30 h;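 active means replicate mean of 65% or more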;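 further: pathway switched on by Shh-conditioned medium diluted 1 in 25 in low serum; 100 nL library stock added to about 40 µL; 0% = median of neutral wells and 100% = positive control level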
An asterisk follows results filed as active; / = not tested or not shown.

SMILES	YB-1 expr inh	PD-1 reversal	MITF inh	Hedgehog inh
Cc1ccc(NC(=O)CSc2nnc(-c3ccccc3)n2-c2ccccc2)c(Br)c1	/	-0.4	19	/
COc1ccc2ccc(=O)oc2c1C(OC(C)=O)C(=O)C(C)C (stereo not given)	0.61	-0.8	24	17
C[C@H](CO)N1C[C@H](C)[C@H](CN(C)Cc2ccc(C(=O)Nc3ccccc3N)cc2)Oc2ccc(NS(=O)(=O)c3cn(C)cn3)cc2CC1=O	-0.41	0.2	-13	/
Cc1ccc(S(=O)(=O)N(C)C[C@@H]2Oc3ccc(NS(=O)(=O)c4ccccc4)cc3CC(=O)N([C@H](C)CO)C[C@@H]2C)cc1	-0.81	-1.4	-7	31
CN(C)/C=C/C(=O)c1ccc2c(c1)CCO2	0.16	0.1	-27	-55
Cc1cc(-c2ccccc2)nc(SCC(=O)Nc2ccccc2C#N)n1	/	-0.5	8	/
C[C@H](CO)N1C[C@H](C)[C@@H](CN(C)S(=O)(=O)c2cn(C)cn2)Oc2ccc(NC(=O)c3ccncc3)cc2C1=O	-0.23	0.3	1	8
Cc1noc(C)c1NC(=O)Nc1cccc2c1O[C@H](CN(C)C(=O)Nc1cccc3ccccc13)[C@@H](C)CN([C@@H](C)CO)C2=O	0.073	1.1	0	-1
CC(C)NC(=O)N(C)C[C@H]1Oc2ccc(NS(=O)(=O)c3cn(C)cn3)cc2C(=O)N([C@@H](C)CO)C[C@@H]1C	/	1.9	2	/
O=C(COC(=O)c1ccc(N2C(=O)c3ccccc3C2=O)cc1)c1ccccc1	-0.34	0.0	-2	-4
COc1ccc(S(=O)(=O)Nc2cccc3c2O[C@H](CN(C)CC2CC2)[C@@H](C)CN([C@H](C)CO)C3=O)cc1	0.35	/	-2	9
COc1cc(C(=O)Nc2ccc(OCC(=O)O)cc2)ccc1OC(C)=O	/	1.2	3	/
CN(CC(N)=O)S(=O)(=O)c1ccc2ccccc2c1	/	3.6	5	/
COc1ccc(-c2nnc(SCC(=O)Nc3cc(Cl)c(Cl)cc3Cl)n2C)cc1	/	-0.5	-4	/
C=CCn1c(C(CC)CC(C)(C)O)n[nH]c1=S (stereo not given)	-0.32	-0.9	7	12
COC(=O)C(C)Sc1nnc(-c2ccc(Br)cc2)o1 (stereo not given)	-0.21	0.2	-5	-34
Cc1noc(C)c1NC(=O)N(C)C[C@H]1Oc2ccc(NS(=O)(=O)c3ccccc3)cc2C(=O)N([C@H](C)CO)C[C@@H]1C	0.024	/	4	-42
Cc1cc(C)c2oc(-c3cccc(NC(=O)COc4ccc(Br)cc4)c3C)nc2c1	/	-0.6	44	/
C[C@@H]1CCCCO[C@@H](CN(C)C(=O)Nc2ccc(F)cc2)[C@@H](C)CN([C@H](C)CO)C(=O)c2cc(NC(=O)Nc3ccc(C(F)(F)F)cc3)ccc2O1	-0.37	-1.4	-3	/
Cc1cc(Br)c(S(=O)(=O)NCc2ccccn2)cc1C	/	1.3	-4	/
COc1ccc(NC(=O)N(C)C[C@H]2OCCCC[C@@H](C)Oc3ccc(NC(=O)c4ccncc4)cc3C(=O)N([C@H](C)CO)C[C@@H]2C)cc1	0.27	1.2	-3	-43
COc1ccc(CN(C)C[C@H]2Oc3ccc(NS(=O)(=O)c4cccs4)cc3C(=O)N([C@H](C)CO)C[C@H]2C)cc1	0.33	0.3	-5	10
CN(C)c1nc(N)nc(CSc2nnnn2C)n1	/	0.4	-44	/
COc1ccccc1NC(=O)/C=C\c1ccco1	-0.55	-19	-61	68*
C[C@@H]1CN([C@H](C)CO)C(=O)c2cc(NC(=O)CCCN(C)C)ccc2O[C@@H]1CN(C)Cc1ccc2c(c1)OCO2	0.12	0.5	-2	10
COc1ccc(S(=O)(=O)Nc2ccc3c(c2)C(=O)N([C@H](C)CO)C[C@H](C)[C@H](CN(C)S(=O)(=O)c2ccc(C)cc2)OCCCC[C@@H](C)O3)cc1	0.013	-6.5	22	4
C[C@@H]1CCCCO[C@H](CN(C)C(=O)Nc2cccc3ccccc23)[C@@H](C)CN([C@H](C)CO)C(=O)c2cc(NC(=O)Nc3ccc(F)cc3)ccc2O1	0.45	-2.5	-11	-13
CCc1ccccc1NC(=O)CSc1nc2sc3c(c2c(=O)n1-c1ccccc1)CCC3	/	-4.1	33	/
CC(C)NC(=O)Nc1cccc2c1O[C@H](CN(C)S(C)(=O)=O)[C@H](C)CN([C@H](C)CO)C2=O	0.076	1.1	-9	-52
C[C@H](CO)N1C[C@H](C)[C@H](CN(C)Cc2ccc(C(=O)Nc3ccccc3N)cc2)Oc2ccc(NC(=O)Cc3cn(C)c4ccccc34)cc2CC1=O	-0.8	-5.1	6	/
C[C@H](CCC(=O)NCC(=O)O)[C@H]1CC[C@H]2[C@@H]3[C@H](O)C[C@@H]4C[C@H](O)CC[C@]4(C)[C@H]3C[C@H](O)[C@]12C	0.37	1.9	2	23
CCn1c(SCC(=O)Nc2cccc(Cl)c2)nnc1-c1ccco1	/	0.0	7	/
COc1ccc(S(=O)(=O)Nc2ccc3c(c2)CC(=O)N([C@@H](C)CO)C[C@H](C)[C@H](CN(C)C(=O)Nc2cccc4ccccc24)O3)cc1	-0.3	1.0	-17	/
C[C@H]1CN([C@@H](C)CO)C(=O)Cc2cc(NC(=O)NC3CCCCC3)ccc2O[C@@H]1CN(C)Cc1ccncc1	-0.19	0.9	-14	/
COc1ccc(NC(=O)N(C)C[C@H]2Oc3ccc(NS(=O)(=O)c4ccc(OC)cc4)cc3CC(=O)N([C@H](C)CO)C[C@H]2C)cc1	-0.013	2.1	-3	-14
C[C@@H]1CN([C@@H](C)CO)C(=O)c2cccc(NC(=O)Nc3ccccc3)c2O[C@H]1CN(C)Cc1ccc(C(F)(F)F)cc1	-0.053	-5.8	40	74*
C[C@@H]1CCCCO[C@H](CN(C)C(=O)C2CCCCC2)[C@@H](C)CN([C@H](C)CO)C(=O)c2cc(NC(=O)c3ccccc3)ccc2O1	-0.064	-1.6	6	-16
C[C@H](CO)N1C[C@H](C)[C@@H](CN(C)Cc2ccncc2)Oc2ccc(NS(=O)(=O)c3ccc(F)cc3)cc2C1=O	0.23	-0.5	-3	/
C[C@@H]1CN([C@H](C)CO)C(=O)Cc2cc(NS(=O)(=O)c3cn(C)cn3)ccc2O[C@@H]1CN(C)Cc1ccccc1	0.12	-0.8	8	-27
C[C@H](CO)N1C[C@H](C)[C@@H](CN(C)Cc2ccc(Cl)c(Cl)c2)Oc2c(NS(=O)(=O)c3cccs3)cccc2C1=O	-0.052	-0.4	-10	-34
NC(=O)COc1c(-c2ccccc2)oc2ccccc2c1=O	/	-0.4	-9	/
NC(=O)c1c(NC(=O)c2cnn3c(C(F)F)cc(-c4ccccc4)nc23)sc2c1CCC2	/	-0.3	55	/
COc1ccc(NC(=O)C(C)N2c3cccc4cccc(c34)S2(=O)=O)cc1OC (stereo not given)	/	-2.5	69	/
COC(=O)c1ccc(-n2c(CCC(=O)O)ccc2-c2ccc(Br)cc2)cc1	/	1.3	10	/
CC(C)NC(=O)Nc1ccc2c(c1)C(=O)N([C@@H](C)CO)C[C@H](C)[C@@H](CN(C)S(=O)(=O)c1ccc(Cl)cc1)O2	-0.17	-0.1	-5	-5
Cc1noc(C)c1NC(=O)N(C)C[C@@H]1Oc2c(NC(=O)NC3CCCCC3)cccc2C(=O)N([C@@H](C)CO)C[C@@H]1C	0.54	1.2	-5	-7
C[C@@H]1CN([C@@H](C)CO)C(=O)Cc2cc(NS(=O)(=O)c3cn(C)cn3)ccc2O[C@@H]1CN(C)C(=O)NC1CCCCC1	-0.28	0.7	2	/
C[C@@H]1CN([C@H](C)CO)C(=O)c2cccc(NS(=O)(=O)c3cccs3)c2O[C@@H]1CN(C)S(=O)(=O)c1ccc(Cl)cc1	0.22	-1.4	-6	-13
CC(OC(=O)c1cccc(O)c1)C(=O)O (stereo not given)	0.089	-1.5	-3	-21
Cc1ccc(S(=O)(=O)Nc2ccc3c(c2)C(=O)N([C@H](C)CO)C[C@@H](C)[C@H](CN(C)C)O3)cc1	0.27	/	8	/
Cc1noc(C)c1S(=O)(=O)Nc1ccc2c(c1)C(=O)N([C@@H](C)CO)C[C@H](C)[C@@H](CN(C)Cc1ccc(C(=O)Nc3ccccc3N)cc1)O2	0.25	-1.3	3	/
CC(C)NC(=O)Nc1ccc2c(c1)CC(=O)N([C@@H](C)CO)C[C@H](C)[C@H](CN(C)Cc1ccc(C(=O)O)cc1)O2	-0.02	-0.7	-5	-2
C[C@H](CO)N1C[C@H](C)[C@H](CN(C)Cc2ccc3c(c2)OCO3)Oc2ccc(NS(=O)(=O)c3cn(C)cn3)cc2CC1=O	0.24	0.5	3	14
COc1ccc(C(=O)CSc2nc(C)cc(=O)[nH]2)cc1[N+](=O)[O-]	/	4.1	31	/
CCOC(=O)c1cnc2c(S(=O)(=O)C(C)C)csc2c1Sc1ccc(Cl)cc1	-0.15	-2.1	34	/
O=C(NCc1ccccn1)c1cnn2c(C(F)(F)F)cc(-c3cccs3)nc12	/	-8.4	-16	/
COc1ccc(CCCOC(Cn2ccnc2)c2ccc(OC)cc2)cc1 (stereo not given)	-0.1	/	64	-26
COc1ccccc1OC(C)C(=O)Nc1c(C)n(C)n(-c2ccccc2)c1=O (stereo not given)	/	0.1	7	/
C[C@@H]1CN([C@H](C)CO)C(=O)Cc2cc(NS(=O)(=O)c3ccccc3)ccc2O[C@@H]1CN(C)Cc1ccncc1	-0.088	/	2	-5
COc1ccc(CN(C)C[C@@H]2Oc3ccc(NS(=O)(=O)c4c(C)noc4C)cc3C(=O)N([C@@H](C)CO)C[C@@H]2C)cc1	-0.77	/	2	/
Following part:
SMILES	YB-1 expr inh	PD-1 reversal	MITF inh	Hedgehog inh
C[C@H](CO)N1C[C@H](C)[C@@H](CN(C)Cc2ccc(Cl)c(Cl)c2)Oc2ccc(NS(=O)(=O)c3cn(C)cn3)cc2C1=O	0.051	/	3	-5
COC(=O)CNC(=O)c1ccc(S(=O)(=O)N2CCOCC2)cc1	/	0.7	-5	/
COc1ccc(NC(=O)CSc2nc(C)cc(=O)[nH]2)c(OC)c1	/	0.5	-9	/
CCOC(=O)c1nnn2c1nc(SCC(N)=O)c1ccccc12	-0.1	-0.7	10	13
C[C@H]1CN([C@@H](C)CO)C(=O)c2cc(NC(=O)CCN3CCOCC3)ccc2O[C@@H]1CN(C)S(=O)(=O)c1cccs1	-0.16	0.5	5	/
CC(C)NC(=O)Nc1ccc2c(c1)C(=O)N([C@H](C)CO)C[C@H](C)[C@H](CN(C)Cc1ccc3c(c1)OCO3)OCCCC[C@@H](C)O2	0.23	1.0	-5	/
Cc1cccc(-n2c(SCC(=O)Nc3ccccc3)nnc2-c2ccccc2)c1	/	0.0	-17	/
C[C@H]1CN([C@@H](C)CO)C(=O)Cc2cc(NC(=O)Cn3cnnn3)ccc2O[C@H]1CN(C)S(=O)(=O)c1ccc(Cl)cc1	-0.34	0.1	0	/
OC(Cn1cncn1)(Cn1cncn1)c1ccc(F)cc1F	0.089	/	6	-3
FC(F)(F)c1ccc(Oc2ccc(Oc3ccc(C(F)(F)F)cn3)cc2)nc1	-0.038	0.5	-8	-10
COc1ccc(S(=O)(=O)N(C)C[C@@H]2Oc3c(NC(=O)Nc4ccccc4)cccc3C(=O)N([C@H](C)CO)C[C@H]2C)cc1	0.22	0.6	1	0
O=c1oc2ccccc2cc1-c1csc(Cc2nc3c(s2)CCCC3)n1	/	2.4	-39	/
C[C@@H]1CN([C@@H](C)CO)C(=O)c2cc(NC(=O)C3CC3)ccc2O[C@@H]1CN(C)CC1CC1	-0.2	1.2	2	15
Cc1sc2c(c1C)CN(C(C)(C)C)CN2C(=O)c1ccccc1	0.63	-0.2	-2	-42

A run of entries of the results above, for reference:
SMILES	YB-1 expr inh	PD-1 reversal	MITF inh	Hedgehog inh
NC(=O)COc1c(-c2ccccc2)oc2ccccc2c1=O	/	-0.4	-9	/
NC(=O)c1c(NC(=O)c2cnn3c(C(F)F)cc(-c4ccccc4)nc23)sc2c1CCC2	/	-0.3	55	/
COc1ccc(NC(=O)C(C)N2c3cccc4cccc(c34)S2(=O)=O)cc1OC (stereo not given)	/	-2.5	69	/
COC(=O)c1ccc(-n2c(CCC(=O)O)ccc2-c2ccc(Br)cc2)cc1	/	1.3	10	/
CC(C)NC(=O)Nc1ccc2c(c1)C(=O)N([C@@H](C)CO)C[C@H](C)[C@@H](CN(C)S(=O)(=O)c1ccc(Cl)cc1)O2	-0.17	-0.1	-5	-5
Cc1noc(C)c1NC(=O)N(C)C[C@@H]1Oc2c(NC(=O)NC3CCCCC3)cccc2C(=O)N([C@@H](C)CO)C[C@@H]1C	0.54	1.2	-5	-7
C[C@@H]1CN([C@@H](C)CO)C(=O)Cc2cc(NS(=O)(=O)c3cn(C)cn3)ccc2O[C@@H]1CN(C)C(=O)NC1CCCCC1	-0.28	0.7	2	/
C[C@@H]1CN([C@H](C)CO)C(=O)c2cccc(NS(=O)(=O)c3cccs3)c2O[C@@H]1CN(C)S(=O)(=O)c1ccc(Cl)cc1	0.22	-1.4	-6	-13
CC(OC(=O)c1cccc(O)c1)C(=O)O (stereo not given)	0.089	-1.5	-3	-21
Cc1ccc(S(=O)(=O)Nc2ccc3c(c2)C(=O)N([C@H](C)CO)C[C@@H](C)[C@H](CN(C)C)O3)cc1	0.27	/	8	/

Assay outcomes deposited in PubChem BioAssay by Broad Institute.

An excerpt; rates above refer to the full screens.
